MARV entry inh: blocks Marburg virus binding to or entry into cells; Marburg virus pseudotyped entry inhibition, cell reporter; control for the full effect not named in the record; about a third of the inactives were read at about 46 µM; Potency, µM (series often up to 37.8 µM), inactives show at the highest dose activity change, negative = inhibition, most hits filed as inhibitors; actives 1.8% (n = 300,000); AID 540276; active = well fitted inhibition curve with a large enough effect; inconclusive = small, poorly fitted or top-dose-only effect, or effect the other way; inactive = flat fitted curve, though single readings scatter; tested in HEK293 cells; about a fifth of its hits are not listed in these tables; further: luciferase read-out
* marks the source's active call; other numbers are inactive results; ? = inconclusive; & = joins results of further samples; [ ] = remark or other dose. On the % scale 0 is the no-effect control and ±100 the full control effect; potency means the concentration at half of the fitted maximal effect. The list is partial (hit frequency here may not be typical).

The first 2 compounds, to show the layout:
SMILES	MARV entry inh
COc1ccc(/C=C/NC(=O)Cc2ccc(OC)c(OC)c2)cc1	24%&24%[14.2 µM]
CN[C@]1(C)[C@@H]2CC[C@@H](C2)C1(C)C	?

Results, previewed entries included:
SMILES	MARV entry inh
COc1ccc(/C=C/NC(=O)Cc2ccc(OC)c(OC)c2)cc1	24%&24%[14.2 µM]
CN[C@]1(C)[C@@H]2CC[C@@H](C2)C1(C)C	?
C#CCN1C(=O)CC[C@@]23C1=NC(C(=O)OC)=C(C(=O)OC)[C@@H]2N(Cc1ccccc1)c1ccccc13	-20%[14.2 µM]
COC(=O)C(C(=O)OC)[C@@H]1O[C@@]23COCC[C@]2(C)[C@@H]3c2ccccc21	?
CC#CCN1c2ccccc2[C@]23CCC(=O)N(CCCOC(C)C)C2=NC(C(=O)OC)=C(C(=O)OC)[C@H]13	-12%[14.2 µM]
C/C(CCN1CCCc2nc(C)c(C)cc21)=N\OC[C@@H](O)[C@H]1O[C@@H]2OC(C)(C)O[C@@H]2[C@H]1O	-8%[14.2 µM]
C[C@@H]1CC2=CCCC2[C@]2(O1)C(=O)N(CC1CC1)c1cccc(Br)c12 (stereo partly drawn)	72%[14.2 µM]
CCOC(=O)CN1C(=O)[C@@]2(C[C@@H](C)C[C@@H](C)O2)c2ccccc21	-18%[14.2 µM]
CO[C@@H]1c2cc(F)ccc2C(=CCCOC(=O)CC=Cc2ccccc2)[C@H]1C	-24%[14.2 µM]
C[C@@H]1C=CCCO[C@]12C(=O)N(CC1CC1)c1cccc(Br)c12	-10%[14.2 µM]
CC(C)[C@@H](OCc1ccccc1)[C@H](C)/C=N\OC[C@@H](O)COCc1ccco1	?
COC(=O)C1=C(C(=O)OC)[C@@H]2N(C)c3ccccc3[C@@]23CCC(=O)N(Cc2ccc(OC)cc2)C3=N1	-9%[14.2 µM]
CCc1cc2c(nc1CC)CCN(CC/C(C)=N/OC[C@@H](O)[C@@H]1O[C@@H]3OC(C)(C)O[C@@H]3[C@H]1O)C2	-6%[14.2 µM]
C=CC[C@@H]1C=C[C@@H](Oc2ccc(OC)cc2)[C@H](CO)O1	-15%[14.2 µM]
CCN1C(=O)NC(c2cccc(C(F)(F)F)c2)C(C(=O)OC)=C1C (stereo not drawn)	23%[14.2 µM]
COC(=O)NC(CC(C)=O)c1ccc(F)cc1 (stereo not drawn)	?
COC(=O)C1=C2C=C(C)CC(C)N2C(=O)NC1c1ccccc1 (stereo not drawn)	30%[14.2 µM]
C=CCOC(=O)C(C(C)=O)[C@@H](NC(=O)OC)c1cccs1 (stereo partly drawn)	-6%[14.2 µM]
CCCN(CCC)[C@H]1CCc2ccc(O)cc2C1	-15%
O=C1C(=O)N(Cc2cccnc2)[C@@H](c2ccccn2)/C1=C(\O)c1ccccc1	13%
C[C@@H]1CC[C@H]2C(=O)N(CC3CCCCC3)C[C@H](O)CN2[C@@H]1c1ccc(Br)cc1	0%[14.2 µM]
C=CCOC(=O)C(C(C)=O)[C@@H](NC(=O)OC)c1cccc(C)c1 (stereo partly drawn)	?
C#CCCCON=C1C[C@@H](O)[C@H](O)[C@H]2[C@@H]3C(=O)N(Cc4ccc5c(c4)OCO5)C(=O)[C@@H]3CC[C@@H]12	-7%[14.2 µM]
COc1ccc([C@]23Cc4cc(OC)c(OC)cc4[C@H](O2)C2=C(CC(C)(C)CC2=O)O3)cc1	20%[14.2 µM]
Cn1c(=O)n(CCN2CCOCC2)c(=O)c2c1nc1n2CCN1c1ccccc1	0%
CCC=CCCC(OC(=O)c1ccc(Br)cc1)C1=CCCCC1=O (stereo not drawn)	?
O=C(NN=C1C[C@@H](O)[C@H](O)[C@H]2[C@@H]3C(=O)N(C4CCCCC4)C(=O)[C@@H]3CC[C@H]12)OCc1ccccc1	?
CCCCCC(=O)N1C[C@@H](O)[C@H](n2cc(C3CC3)nn2)C[C@H]1c1ccccc1	?
COC(=O)C1=C(C)N(Cc2ccccc2)C(=NCC2CC2)NC1c1cccc(C(F)(F)F)c1 (stereo not drawn)	11%[14.2 µM]
COC(=O)[C@@]1(C=C2c3ccc(F)cc3[C@@H](OC)[C@@H]2C)[C@@H]2C=CC[C@@H]21	-19%[14.2 µM]
CC(C)(C)c1ccc(O[C@@H]2[C@H](O)CO[C@@H]2/C=C/C#Cc2ccccc2)cc1	-16%[14.2 µM]
O=C([C@@H]1CC1(c1ccccc1)c1ccccc1)N1CCOCC1	-6%
O=C(N/N=C1\C[C@@H](O)[C@@H](O)[C@@H]2[C@@H]3C(=O)N(C4CCCCC4)C(=O)[C@@H]3CC[C@@H]12)OCc1ccccc1	-13%[14.2 µM]
COC(=O)NC/C=C\c1nc(CCCO)co1	-24%[14.2 µM]
NC1N=CC(c2cc3ccccc3oc2=O)S1 (stereo not drawn)	-13%[46.1 µM]
Cc1nn(-c2ccccc2)c2c1[C@@H](c1ccc(F)cc1F)C(C#N)=C(N)O2	0%
O=C(C1=C(O)C(=O)N(c2ncccn2)[C@@H]1c1cccc(Cl)c1)c1ccco1	-1%
C(#C[C@@H]1C=C[C@H]2OC(c3ccccc3)OC[C@H]2O1)c1ccccc1 (stereo partly drawn)	?
COc1ccc(OC)c([C@@H]2C(C#N)=C(N)Oc3cc(C)[nH]c(=O)c32)c1	8%
CCC(=O)N1C2=C(c3ccccc3[C@@H]1CC(=O)Nc1ccc3ccccc3c1)[C@H]1C(=O)N(c3ccccc3)C(=O)[C@@H]1[C@H](C)C2	?
CC=C(C)[C@H](O)C[Si](C)(C)c1ccccc1	-3%[14.2 µM]
CCN1C(=S)NC(c2cccc(C(F)(F)F)c2)C(C(=O)OC)=C1C (stereo not drawn)	?
CC(C)(C)NCC(O)C1=C(Cl)CCCC1 (stereo not drawn)	15%
CCOC(=O)NN=C1C[C@@H](O)[C@@H](O)[C@@H]2[C@H]3C(=O)N([C@@H](C)c4ccccc4)C(=O)[C@@H]3CC[C@H]12	10%[14.2 µM]
COC(=O)C1=C(C)N(Cc2ccccc2)C(=S)NC1c1cccc(C(F)(F)F)c1 (stereo not drawn)	-35%[14.2 µM]
COC(=O)C1=C(C(=O)OC)[C@@H]2N(C)c3ccccc3[C@@]23C[C@@H](C(=O)OC)N(C(=O)Nc2cccc(C#N)c2)C3=N1	27%[14.2 µM]
CC(C)CO/N=C1/C[C@@H](O)[C@@H](O)[C@@H]2[C@@H]3C(=O)N(C[C@@H]4CCCO4)C(=O)[C@H]3CC[C@@H]12	-10%[14.2 µM]
CC1=CC[C@@H](COc2ccccc2)O[C@@]2(C1)C(=O)N(Cc1ccc(F)cc1)c1cccc(Br)c12	-10%[14.2 µM]

Two compounds drawn at random from the list so far:
SMILES	MARV entry inh
CC=C(C)[C@H](O)C[Si](C)(C)c1ccccc1	-3%[14.2 µM]
CCOC(=O)NN=C1C[C@@H](O)[C@@H](O)[C@@H]2[C@H]3C(=O)N([C@@H](C)c4ccccc4)C(=O)[C@@H]3CC[C@H]12	10%[14.2 µM]

More records:
SMILES	MARV entry inh
COCCN1C(=O)NC(CCc2ccccc2)C(C(C)=O)=C1C (stereo not drawn)	5%[14.2 µM]
CCN1C(=O)[C@@H]2[C@H]3[C@H](O)[C@H](O)CC(=NOC[C@@H](O)COCc4ccco4)[C@@H]3CC[C@H]2C1=O	-22%&34%[14.2 µM]
O=C(O)C[C@H](C(=O)OCCOc1ccccc1)N1CCOCC1	0%
COC1CCCCC1C1CCN(C(=O)c2cccs2)CC1 (stereo not drawn)	-7%
COC(=O)CC=C[C@@H](C)[C@@H](C=NO[C@H](C)c1cn([C@@H]2COC[C@@H]2O)nn1)N[S+](=O)([O-])c1ccc(C)cc1	10%[14.2 µM]
C[C@H]1COc2cccc(F)c2S(=O)(=O)N1	?
C=CCOC(=O)C1=C(C)OC(N)=C(C#N)[C@@]12C(=O)N(CN1CCOCC1)c1ccccc12	16%[46.1 µM]
N#CCCCS(=O)(=O)c1nnnn1-c1ccccc1	?
CC=COC(=O)N[C@@H](c1ccccc1)[C@]1(C(=O)OCC)CCCC1=O	2%[14.2 µM]
CN(CCO)C[C@H](O)Cn1cnc2c1c(=O)n(C)c(=O)n2C (tested in a mixture with another compound)	-17%
COC(=O)C1=C(C)N(Cc2ccccc2)C(=NCc2ccc(OC)cc2)NC1c1cccc(F)c1 (stereo not drawn)	-1%[14.2 µM]
CCN1C(=NCCCOC(C)C)N[C@@H](CCc2ccccc2)[C@H](C(=O)OC)[C@H]1C	3%[14.2 µM]
CCCCCCN1C[C@H](O)[C@@H](n2cc(C3CC3)nn2)C[C@H]1c1ccc(C)cc1	?
C#CCCCO/N=C1\C[C@@H](O)[C@@H](O)[C@@H]2[C@@H]3C(=O)N(C[C@@H]4CCCO4)C(=O)[C@@H]3CC[C@H]12	4%[14.2 µM]
CCOC(=O)CCN1C(=O)[C@H]2[C@H]3[C@H](O)[C@H](O)C/C(=N\NC(=O)OCc4ccc(OC)cc4)[C@H]3CC[C@H]2C1=O	22%[14.2 µM]
CCOC(=O)CN1C(=O)[C@]2(OC[C@@H]3Cc4ccccc4[C@H]3C=C2C)c2ccccc21	-22%[14.2 µM]
CCOC(=O)N/N=C1/C[C@@H](O)[C@@H](O)[C@@H]2[C@@H]3C(=O)N(Cc4ccccc4)C(=O)[C@H]3CC[C@H]12	25%[14.2 µM]
COC(=O)C1=C(C(=O)OC)[C@@H]2N(Cc3ccccc3)c3ccccc3[C@@]23CCC(=O)N(CC2CC2)C3=N1	?
CN(C[C@H](O)COc1ccc(OC[C@H](O)CN(C)C2CCCCC2)cc1)C1CCCCC1	10µM*
CC1=CC[C@@H](COc2ccccc2)O[C@@]2(C1)C(=O)N(Cc1ccccc1C(F)(F)F)c1cccc(Br)c12	-7%[14.2 µM]
CCOC(=O)OC[C@H]1O[C@H](C#Cc2ccc(C)cc2C)C=C[C@@H]1OC(=O)OCC	4%[14.2 µM]
CCO[C@@H]1C[C@@]1(C=C[C@@H](C)[C@H](OC)c1ccccc1Br)C(=O)OC	-14%[14.2 µM]
C#C[C@H](N)CCC(=O)O	0%
COc1ccc(O[C@H]2C=C[C@@H](c3ccccc3)O[C@@H]2COC(=O)CC/C(C)=N/OCC[C@@H]2C=C[C@H](OC(C)=O)[C@@H](COC(C)=O)O2)cc1	?
O=C1OC(c2cccc(Cl)c2)N=C2C1C=NN2c1ccccc1 (stereo not drawn)	2%
O=C(/C=N\O)NCCCN1CCOCC1	-36%
CCOC(=O)CN1C(=O)NC(c2cccc(C(F)(F)F)c2)C(C(C)=O)=C1C (stereo not drawn)	?
CCOC(=O)N/N=C1/C[C@@H](O)[C@@H](O)[C@@H]2[C@@H]3C(=O)N(c4cccc(Oc5ccccc5)c4)C(=O)[C@H]3CC[C@H]12	?
Cc1cc2c(c(=O)n1-c1ccccc1)[C@H]1O[C@](c3ccsc3)(Cc3cc(C#N)ccc31)O2	?
COc1ccccc1/C=C/C1=CC2(C)CC1(C)C(c1ccccc1OC)CC2=O (stereo not drawn)	-29%[14.2 µM]
CC1(C)[C@H]2CC[C@]1(C)[C@H](OC(=O)CC(=O)O)C2	-2%
O=C(N/N=C1\C[C@@H](O)[C@@H](O)[C@@H]2[C@@H]3C(=O)N(c4cccc(Oc5ccccc5)c4)C(=O)[C@@H]3CC[C@H]12)OCc1ccccc1	4%[14.2 µM]
O=C(CCN1C(=O)C2CC=CCC2C1=O)N1CCN(C2=NCCCC2)CC1 (stereo not drawn)	21%
CC1(C)CN(Cc2cccnc2)C(=O)[C@@H]1CC(=O)Nc1ccc(Br)cc1	?
Cc1nnc2n(-c3ccccc3)c(=O)c3c4c(sc3n12)C[C@H](C)CC4	-19%
O=C1[C@@H]2[C@H]3[C@H](O)[C@H](O)CC(=NOC[C@@H](O)COCc4ccco4)[C@H]3CC[C@H]2C(=O)N1c1ccc(F)cc1F	14%[14.2 µM]

The final 3 records of the part before come first, to join the parts.
SMILES	MARV entry inh
CC1(C)CN(Cc2cccnc2)C(=O)[C@@H]1CC(=O)Nc1ccc(Br)cc1	?
Cc1nnc2n(-c3ccccc3)c(=O)c3c4c(sc3n12)C[C@H](C)CC4	-19%
O=C1[C@@H]2[C@H]3[C@H](O)[C@H](O)CC(=NOC[C@@H](O)COCc4ccco4)[C@H]3CC[C@H]2C(=O)N1c1ccc(F)cc1F	14%[14.2 µM]
C/C(CCN1CCc2nc(-c3ccccc3)c(-c3ccccc3)cc2C1)=N\OC[C@@H](O)[C@@H]1O[C@@H]2OC(C)(C)O[C@@H]2[C@H]1O	26%[14.2 µM]
C=CCNC(=O)N1CCc2nc(-c3ccc(OC)cc3C)c3c(c2C1)CO[C@@H](c1ccccc1)C3	-42%&-42%&-42%[14.2 µM]
COCC=CC1=CC2=CC(=O)C(C)(OC(=O)c3cnc4ccccc4n3)C(=O)C2=CN1CC1CC1 (stereo not drawn)	58%[14.2 µM]
CC1=CC=CN2C[C@H](O)CN=C12	12%

A few values from the list.
MARV entry inh, CC1=CC=CN2C[C@H](O)CN=C12 : 12%
MARV entry inh, C=CCNC(=O)N1CCc2nc(-c3ccc(OC)cc3C)c3c(c2C1)CO[C@@H](c1ccccc1)C3 : -42%&-42%&-42%[14.2 µM]
MARV entry inh, C/C(CCN1CCc2nc(-c3ccccc3)c(-c3ccccc3)cc2C1)=N\OC[C@@H](O)[C@@H]1O[C@@H]2OC(C)(C)O[C@@H]2[C@H]1O : 26%[14.2 µM]
MARV entry inh, COCC=CC1=CC2=CC(=O)C(C)(OC(=O)c3cnc4ccccc4n3)C(=O)C2=CN1CC1CC1 (stereo not drawn) : 58%[14.2 µM]
